LANA-H2A inh = blocks KSHV LANA binding to histone H2A/H2B; inhibition, % (no concentration beside the values); AID 2629; cell-free LANA-H2A/H2B peptide, fluorescence polarization; Q9QR71; 0.6% of 320,000 active; in the data active means inhibition mostly above about 10%, no sharp cut-off; inactive means mostly below about 6.7%;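 further: stock transfer was 7.5 nL into about 10 µL; 0% = median of vehicle wells and 100% = median of positive control wells; one replicate is shown; the record names a cut of 25% in any replicate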
Target sequence (Q9QR71 whole entry, looked up): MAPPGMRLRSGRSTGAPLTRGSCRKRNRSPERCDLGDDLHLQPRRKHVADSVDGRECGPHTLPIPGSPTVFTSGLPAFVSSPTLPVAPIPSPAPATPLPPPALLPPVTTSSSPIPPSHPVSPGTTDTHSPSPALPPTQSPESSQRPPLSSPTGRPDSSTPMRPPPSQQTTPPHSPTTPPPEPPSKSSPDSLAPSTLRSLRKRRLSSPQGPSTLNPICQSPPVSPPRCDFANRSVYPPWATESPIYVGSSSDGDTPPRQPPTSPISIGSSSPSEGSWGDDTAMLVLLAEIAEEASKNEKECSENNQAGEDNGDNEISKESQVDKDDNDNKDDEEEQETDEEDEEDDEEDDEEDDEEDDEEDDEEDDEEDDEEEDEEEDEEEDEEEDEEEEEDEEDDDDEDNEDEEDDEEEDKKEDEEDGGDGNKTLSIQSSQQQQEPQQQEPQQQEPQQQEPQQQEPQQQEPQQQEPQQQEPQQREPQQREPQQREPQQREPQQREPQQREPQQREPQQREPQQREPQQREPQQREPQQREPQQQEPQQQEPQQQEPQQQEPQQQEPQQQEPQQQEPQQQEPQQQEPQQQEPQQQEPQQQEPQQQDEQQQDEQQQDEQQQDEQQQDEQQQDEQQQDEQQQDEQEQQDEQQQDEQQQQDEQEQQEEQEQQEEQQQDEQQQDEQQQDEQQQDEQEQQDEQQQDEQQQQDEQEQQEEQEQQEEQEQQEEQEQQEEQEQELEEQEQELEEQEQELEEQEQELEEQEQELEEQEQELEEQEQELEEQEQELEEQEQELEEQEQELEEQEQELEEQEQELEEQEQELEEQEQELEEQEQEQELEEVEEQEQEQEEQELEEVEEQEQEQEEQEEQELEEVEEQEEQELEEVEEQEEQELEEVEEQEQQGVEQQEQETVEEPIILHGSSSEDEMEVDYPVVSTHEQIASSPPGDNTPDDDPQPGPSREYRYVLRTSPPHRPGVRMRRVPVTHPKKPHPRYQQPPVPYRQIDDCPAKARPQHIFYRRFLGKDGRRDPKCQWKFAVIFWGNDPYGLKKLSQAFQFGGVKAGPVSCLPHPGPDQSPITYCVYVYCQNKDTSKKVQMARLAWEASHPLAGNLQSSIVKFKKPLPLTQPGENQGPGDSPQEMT
RanGTP-Imp inh = inhibitors of RanGTP-importin-beta interaction, primary screen, biochemical, FRET, CFP-Ran, YFP-importin-beta, homogeneous; cell-free CFP-Ran/YFP-importin-beta FRET ratio; inhibition, % (concentration not given with the values); 1.1% of 300,000 active; AID 2216;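 active means most replicates above 15%; inconclusive means exactly half above 15%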;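 further: 0% = DMSO wells and 100% = Ran loaded with GDP instead of GTP; wells of about 40 µL received 100 nL stock; the first replicate is given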
UCH37 inh = human UCH37 deubiquitinating enzyme inhibition; 0.33% of 330,000 active; purified proteasome/UCH37, Ub-AMC cleavage fluorescence; inhibition, % (no concentration beside the values); AID 588478;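 active means mean of two replicates above 20%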;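 further: 0% = compound-free wells with enzyme and 100% = wells lacking proteasome; stock transfer was 100 nL into about 20 µL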
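Schedule: 30 min plus 25 min, room temperature / Material: human UCH37 within purified proteasomes / Technique: AMC fluorescence intensity at 355/460 nm / Buffer or medium: pH 7.4 Tris-HCl (50 mM) with ovalbumin, ATP-MgCl2, DTT / Controls: wells without proteasome as full block, compound-free enzyme plus substrate as uninhibited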
Beta cell apopt = blocks beta cell apoptosis | INS-1E cytokine-induced death, ATP luminescence, 48 h; percent of positive-control rescue, neutral wells zero | protection from apoptosis, % (concentration not given with the values) | 0.8% of 300,000 active;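 active means all replicates at 75% or more, or half of them and the mean; inconclusive means half reach 75% but not the mean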;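 further: 0% = cytokine-treated negative control wells and 100% = positive control rescue; higher means more ATP so stronger rescue from cytokine killing; wells of about 40 µL received 100 nL stock; the first replicate is given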
T cruzi repl = T. cruzi replication inhibition. inhibition, % (no concentration beside the values). 1.4% of 300,000 active. T. cruzi beta-gal in NIH3T3, luminescence, 90 h;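 active means mean inhibition across valid replicates above about 55%, limit read from the data; inconclusive means mean below that limit but half or more replicates reach it; inactive means mean below it, under half of replicates reach it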;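 further: signal also drops with host cell toxicity which is not excluded here; 0% = plate median of DMSO wells and 100% = zero luminescence signal; higher percent means less beta-gal luminescence so fewer parasites; stock transfer was 50 nL into about 50 µL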
Beta2AR agonist = human beta-2 adrenergic receptor agonism by FAP | response, % (concentration not given with the values) | 0.43% of 340,000 active | Am2.2-beta2AR cells, FAP receptor internalization, flow cytometry; reference of the scale not given here | P07550;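 active means response above a set limit, near 3 SD of response in nonfluorescent compounds, cut at about 42% in these data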;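 further: stock transfer was 100 nL into about 11 µL; a reference agonist was the positive control; negative values mostly stem from fluorescent compounds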
Bfl-1 A1 inh = inhibitors of the anti-apoptotic protein A1, read as caspase activation | MEF A1-2A-BIM cells, Caspase-Glo 3/7 luminescence, 3 h; percent of clofoctol response, vehicle zero | caspase activation, % (test concentration not listed) | 0.066% of 330,000 active;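 active means over half of replicate activation scores above 10%, or exactly half above 10 with the replicate mean above 10; inconclusive means replicate mean below 10 yet half the replicates above 10; inactive means over half of replicates below 10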;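 further: wells of about 30 µL received 50 nL stock; many hits fall short of the cut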
Calb FLC = C. albicans growth modulation with fluconazole; growth inhibition, % (no concentration beside the values); 0.57% of 300,000 active; AID 1979; C. albicans CaCi-2 (fluconazole-resistant clinical isolate) + fluconazole, Alamar Blue growth, 48 h;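 active means most replicates above 75%; inconclusive means exactly half above 75%; inactive means most below 75%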;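 further: all wells also contain fluconazole at 8 µg/ml as a sub-toxic cotreatment; 0% = median of DMSO wells and 100% = median of geldanamycin control wells; wells of about 8 µL received 7.5 nL stock; the first replicate is given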
Numbers without * were called inactive; ? = inconclusive; nt = no result given.

Compound	LANA-H2A inh	RanGTP-Imp inh	UCH37 inh	Beta cell apopt	T cruzi repl	Beta2AR agonist	Bfl-1 A1 inh	Calb FLC
COC(=O)c1ccc2c(=O)n(-c3ccccc3F)c(=S)[nH]c2c1	2.9	5.6	-29	-5	-27	2	-0.9	-3
O=C(O)c1cc2n(n1)C(C(F)(F)F)CC(c1ccco1)N2 (stereo unspecified)	4.8	1.1	-0.4	-4	-17	1	-0.6	1
CN(C)c1cccc2c(S(=O)(=O)N3CCOCC3)cccc12	-4.5	0.7	-8.8	-10	4	-2	1.5	3
N#CCC(=O)Nc1ccc(C(=O)OCC(=O)Nc2ccccc2-c2ccccc2)cc1	-6.0	-3.8	-1.1	nt	1	1	1.0	-3
Cc1ccc(C(=O)C2=C(O)C(=O)N(Cc3ccco3)C2c2cccc(Br)c2)o1 (stereo unspecified)	2.3	2.0	nt	nt	-5	3	0.9	?
C=CCO/N=C/C1=C(O)C(C(=O)OC)C(C)(C)CC1=O (stereo unspecified)	1.8	9.3	nt	-10	8	-15	0.0	0
CCOC(=O)C1CCN(C(=O)C(C)Sc2nnc3ccccn23)CC1 (stereo unspecified)	6.6	nt	-0.1	-1	nt	19	1.3	nt
O=C(c1ccccc1)N(Cc1ccccc1)c1ccccn1	-1.2	-1.7	4.7	-1	4	-1	0.1	-25
CC(=O)c1cc(Cc2csc(C(C)=O)c2)cs1	2.5	-6.1	2.0	2	3	-4	-0.4	-4
O=C(CN1C(=O)NC2(CCCC2)C1=O)Nc1nc(-c2ccc(F)cc2)cs1	-4.0	1.8	2.3	-2	-3	5	0.6	-12
CSC1=C(C#N)C(=O)NC(c2ccccc2O)S1 (stereo unspecified)	-0.6	1.2	11	-1	-5	5	0.9	15
O=C(CNC(=O)c1ccccc1F)OCCCOC(=O)CNC(=O)c1ccccc1F	-1.6	-3.0	1.7	2	-4	2	-0.2	4
CS(=O)(=O)Nc1ccc(C2=NN(C(=O)c3ccco3)C(c3ccc(F)cc3)C2)cc1 (stereo unspecified)	-5.9	-2.3	0.4	4	12	-14	-0.2	-1
CC(C)N(C(=O)CSc1nnc(Cc2csc(Nc3ccccc3)n2)o1)C(C)C	-0.3	-17	3.8	-3	-15	-5	1.7	-2
COc1ccc2cc(-c3cccnc3)ncc2c1	2.5	nt	0.6	-5	nt	-3	-11	nt
COc1ccc(N(CC(=O)N2CCN(Cc3ccccc3)CC2)S(C)(=O)=O)cc1OC	-0.7	1.2	2.6	-4	-1	2	0.9	-11
CCn1cc(CCCC(=O)NCc2cccnc2)c2ccccc21	6.4	1.8	-4.0	0	-10	-7	-0.2	-1
Cn1c(=O)cc(SCC(=O)NCCCN2CCOCC2)c2ccc(Cl)cc21	2.5	-1.1	0.5	-4	1	-24	0.1	-4
COc1ccc(NC(=O)CNC(=O)C23CC4CC(CC(C4)C2)C3)c(OC)c1	3.2	1.7	2.8	-3	12	2	0.5	3
COC(=O)c1c(NC(=O)COC(=O)c2ccccn2)sc(C)c1C	1.8	1.9	2.5	nt	6	-2	0.6	-2
O=C(CCN1C(=O)C2C3CC(C(Br)C3Br)C2C1=O)OCC(=O)c1cccc([N+](=O)[O-])c1 (stereo unspecified)	-1.7	3.1	4.5	-3	-1	6	0.4	-2
COc1ccc(-c2nc3c(c(SCC(=O)N4CCOCC4)n2)Cc2c(CO)cnc(C)c2O3)cc1	1.8	4.3	0.2	3	1	6	0.5	14
COc1ccc(C)cc1S(=O)(=O)Nc1cccc(Cl)c1	-2.2	-1.4	6.2	2	7	-1	-0.2	-7
O=c1/c(=C/c2ccccn2)sc2nc3ccccc3n12	nt	-1.4	nt	1	-20	-1	-5.6	-1
CCOc1nc(-c2ccccc2)ccc1-c1noc(COc2ccccc2)n1	4.4	?	-1.6	nt	25	-2	1.5	6
CC(C)C[C@@H](COc1ccccc1)N1CCN(CCc2ccccc2)CCC1=O	2.3	-1.0	2.6	-4	10	-5	0.0	-8
COc1cc(Cl)c(C)cc1NC(=O)COC(=O)/C=C/c1c(C)nn(C2CCS(=O)(=O)C2)c1Cl (stereo unspecified)	4.4	1.5	0.1	-4	3	3	1.0	-5
Cc1cc(/C=C2\C(=N)N3N=C(S(C)(=O)=O)SC3=NC2=O)c(C)n1Cc1ccccc1	3.2	9.3	0.0	-2	17	11	0.5	72
CC(C)(C)c1nn(-c2ccccc2)c2nc(Cl)c(C=O)cc12	6.5	-1.1	1.3	4	-9	1	-1.1	0
Cc1cccc(NC(=O)COC(=O)c2cccs2)c1C	0.7	?	-0.1	-1	6	4	0.3	-1
CC(C)(C)C(=O)Nc1sc2c(c1-c1nc3ccccc3[nH]1)CCCC2	-1.6	3.3	-384	17	44	7	1.0	-5
CN1CCc2c(sc(NC(=O)c3ccc(C(=O)c4ccccc4)cc3)c2C(N)=O)C1	9.5	1.9	0.4	-10	19	0	-0.1	-2
COc1ccc(Oc2nnc(-c3ccc(C)cc3)c3ccccc23)cc1	-4.2	0.0	1.1	6	-14	-8	0.8	-1
CCC(c1nnnn1C1CCCC1)N1CCN(c2ccccc2F)CC1 (stereo unspecified)	2.7	-0.5	2.2	0	8	-6	1.5	1
Cn1c(=O)[nH]c2sc3c(c2c1=O)CC(C)(C)OC3	0.7	-0.4	5.0	nt	-2	3	0.8	-16
O=C(NCc1cccnc1)c1c[nH]c2cc3c(cc2c1=O)OCCO3	0.6	-0.4	6.6	16	-17	-1	0.6	-9
CCOc1ccc(NC(=O)C(=O)NCCN2CCN(S(=O)(=O)c3ccc(C)cc3)CC2)cc1	2.3	-2.1	-1.3	10	-13	3	0.4	0
O=C(CCc1nc2ccccc2c(=O)[nH]1)NCC(=O)Nc1ccc(F)c(F)c1	-1.2	2.6	-1.4	nt	-6	8	-0.9	4
CCc1ccc(CNC(=O)CCCC(=O)n2nc(C)c3ccccc32)cc1	3.7	4.1	3.4	-6	2	-12	-0.6	3
Nc1nc(-c2ccccc2)cc(-c2ccccc2)n1	7.8	1.0	-17	-2	-11	6	0.1	-3
Cc1ccc(S(=O)(=O)NC(=O)Nc2ccc(C)cc2C)cc1	5.1	-2.6	4.0	-6	-6	11	0.5	7
COCCNC(=O)CSc1nc2ccc(N3CCOCC3)cc2c(=O)n1Cc1ccc(OC)cc1	-2.2	-4.1	-110	-3	7	-2	0.2	25
O=C(CN1C(=O)CCC1=O)Nc1nc(-c2ccccn2)cs1	1.3	6.6	4.4	nt	-17	3	0.3	-1
Cc1ccc2nc(N3CCN(C)CC3)c(C#N)cc2c1	1.3	5.9	-84	-6	14	-16	0.8	-9
CCCCCOc1ccc(NC(=O)C2OC3OC(C)(C)OC3C3OC(C)(C)OC23)cc1 (stereo unspecified)	-6.0	-0.2	4.9	0	-11	-4	0.7	2
CC(C)(C)OC(=O)N1CCC2(CC1)Oc1ccc(F)cc1C(=O)C21CC(c2ccccc2)=NO1 (stereo unspecified)	0.8	-1.3	2.7	4	29	11	0.1	10
CC(=O)Nc1ccc(C(=O)CSc2nnc3scc(-c4ccccc4)n23)cc1	3.2	0.2	1.4	0	-4	-20	1.0	0
Cc1cccc(C(=O)O/N=C(\N)c2ccc(Cl)cc2)c1	2.5	-0.8	2.1	-1	3	3	-3.0	10
O=C(C/C(=N/O)c1ccccc1O)C(F)F	1.5	-4.3	nt	-9	-13	-5	-0.3	3
CC1CCN(c2c(NCC3CCC(C(=O)NC4CCCCCC4)CC3)c(=O)c2=O)CC1 (stereo unspecified)	0.6	-2.1	3.1	3	9	5	0.3	3
S=C1NC[C@H](CC2CCCCC2)N1CC1CCCCC1	-1.8	-3.0	1.9	23	31	-3	0.0	-7
Cc1cccc(CNC(=O)C2CCC(=O)N(C3CC3)C2)c1 (stereo unspecified)	2.7	-1.5	1.6	-3	3	10	0.0	3
COc1ccc(S(=O)(=O)NCc2ccccn2)c(C)c1C	-2.5	-3.3	nt	5	-2	3	-0.4	3
Oc1ccccc1N1CCN(c2ncnc3scc(-c4ccc(F)cc4)c23)CC1	1.7	5.3	3.9	15	3	5	1.4	-27
O=C(CCn1c(=O)[nH]c2ccccc2c1=O)NCCSCc1ccccc1	-0.1	2.8	0.9	-4	0	-8	-0.5	-29
CCC(C)N1CCC(Oc2ccc(C(=O)NCc3ccccn3)cc2)CC1 (stereo unspecified)	175*	2.1	2.3	-8	-5	4	-0.8	-2
CC1CCCCC1NC(=O)C1CCN(S(=O)(=O)c2ccc3c(c2)CCC(=O)N3)CC1 (stereo unspecified)	-7.1	-3.2	1.1	-2	1	2	0.4	-5
Cc1cc(C)c2nc(/N=C(\N)NC(=O)Nc3ccccc3)nc(C)c2c1	-1.0	-1.1	nt	1	32	-2	0.0	4
COc1ccc(CCNC(=O)Cn2nnc(C(=O)Nc3cccc(C)c3C)c2N)cc1OC	2.2	7.5	-1.0	-5	-11	4	-0.3	-6
CC(=O)Nc1ccc(S(=O)(=O)Nc2nc3ccccc3nc2Nc2ccccc2)cc1	1.3	-1.5	-4.7	-4	-11	-2	-0.2	15

New compounds follow
Compound	LANA-H2A inh	RanGTP-Imp inh	UCH37 inh	Beta cell apopt	T cruzi repl	Beta2AR agonist	Bfl-1 A1 inh	Calb FLC
C/C(=N\Nc1ccc([N+](=O)[O-])cc1[N+](=O)[O-])C(C)(C)C(C(=O)O)C(=O)O	2.6	-1.6	nt	0	-10	-2	-0.1	31
COc1ccccc1NS(=O)(=O)c1cc(NC(=O)c2cccs2)ccc1N1CCOCC1	-4.6	1.0	2.8	36	40	-3	1.2	-2
CCc1nn(CC(=O)NCCc2ccc(OC)cc2OC)c(=O)c2cc3occc3n12	2.8	0.2	5.5	1	7	-3	0.8	-7
CCOC(=O)c1cc(-c2c(Cl)cccc2Cl)no1	-3.7	6.3	0.0	-8	7	7	0.7	-8
Cc1cccc(C(=O)NC(=S)NNC(=O)c2ccc(Cl)cc2)c1	-0.1	-1.9	3.5	3	21	-3	-0.5	-3
COc1ccc(Cl)cc1NC(=O)C1CC(c2ccccc2O)=NO1 (stereo unspecified)	-1.6	-2.0	1.2	6	-2	0	0.5	-9
COc1ccc(OC)c(NC(=O)COC(=O)CCc2nc3ccccc3c(=O)[nH]2)c1	-4.2	nt	-2.2	-1	nt	-5	0.8	nt
COc1ccc(CN(Cc2ccc(C(=O)O)cc2)C(=S)Nc2ccccc2Cl)cc1OC	2.0	-4.0	-3.6	-1	0	-10	-0.5	7
COCC(=O)N(C)c1nnc(-c2cnc(C)cn2)s1	5.5	4.2	-10	1	-5	-4	-1.0	-4
CCc1ccc([C@@H]2CC=C(C(=O)O)CN2S(=O)(=O)c2ccc(C)cc2)cc1	0.4	nt	1.8	-2	nt	3	-0.3	nt
CCCOc1ccc(CC2CCC(=O)NC2=O)cc1 (stereo unspecified)	0.7	6.4	-0.3	-5	-15	-1	-0.6	-1
COc1ccc(C(=O)c2sc3nc(-c4ccccc4)ccc3c2N)cc1	-4.5	nt	-83	-2	25	-179	-0.9	nt

Bioassay records: PubChem, several laboratories
